Compound activity deposited in PubChem by ICCB-Longwood Screening Facility, Harvard Medical School.
Ba CapD inh = inhibitors of Bacillus anthracis CapD enzyme; z-score (test concentration not listed); 140,000 compounds, 0.23% hits; purified CapD enzyme, fluorescence intensity read-out; stronger effect = lower value; some hits fall short of the stated cut; AID 492967;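 active = z-score under -4 in either of two replicates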;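 also: stock transfer was 100 nL into about 40 µL; score is relative to mean and spread of the plate; one replicate is shown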
AID504770 = growth inhibitors of E. coli YBA685 in a screen for V. cholerae RctB (chromosome II replication) inhibitors; E. coli YBA685 rctB-dependent plasmid, OD600 growth, 3 h; stronger effect = lower value; 130,000 compounds, 0.27% hits; z-score (test concentration not listed);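 active = z-score under -2 on both plates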;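 also: wells of about 30 µL received 100 nL stock; score is relative to mean and SD of the test wells; the first replicate is given; strong numbers were not always called active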
* marks the source's active call; other numbers are inactive results; / = no result given; & = joins results of further samples. The order is random; overall some 0.39% were active at least once.

SMILES | Ba CapD inh | AID504770
O=C(O)/C(=N\NC(=O)c1ccccc1)c1ccccc1 | -0.92 | -0.8
COc1cc2c(cc1NC(=O)C(C)Sc1nc3ccccc3n1C)oc1ccccc12 (stereo not given) | / | 0.2
CCn1c(SCC(=O)c2ccccc2)nc2ccccc2c1=O | -0.18 | -2.1
Fc1cc2[nH]c(=S)[nH]c2cc1Cl | -0.17 | /
CC(O)CNc1c[nH]c(=O)[nH]c1=O (stereo not given) | -0.155 | -0.8
CCCC(=O)Nc1cc(Cl)ccc1OC | 0.295 | -0.45
CCn1cc(C(=O)O)c(=O)c2cnc(N3CCCC3)nc21 | -0.145&1.44 | -0.55
CC(=O)OCc1ccc(C=C(C#N)C#N)o1 | -0.69 | 0.1
CNC(=S)NNC(=O)c1sccc1OCc1cccc(C(F)(F)F)c1 | 0.455 | /
OCc1ccccc1Sc1ccccc1CO | 1.08 | -0.2
Cc1onc(-c2ccccc2)c1C(=O)NCc1ccccc1 | / | 0.25
COc1ccc(N2CCN(c3ncnc4sc(C(=O)NCc5ccccc5OC)c(C)c34)CC2)cc1 | -0.385 | /
COc1cccc(/C=C/[N+](=O)[O-])c1 | 0.865 | /
CCn1cc(C(=O)O)c(=O)c2cc3c(cc21)OCO3 | 7.46&0.095 | -3.75*
O=C(C1CCCO1)N1CCC2(CC1)OCCO2 (stereo not given) | 0.13 | -0.4
COc1ccc(Nc2cc(C(=O)NCCN3CCCC3)c3ccccc3n2)c(OC)c1 | -0.08 | -0.5
CCOc1ccc(N2C(=O)NC(=O)/C(=C/c3cc(Br)ccc3OC)C2=O)cc1 | 0.205 | /
COc1ccc2c(c1)c(=O)oc1c(CN(C)C)c(O)ccc12 | 0.975 | -0.95
COc1cc([N+](=O)[O-])ccc1N1CCCCC1 | -1.52 | /
S=C(N/N=C/c1ccc(Cl)c(Cl)c1)NC1CC2C=CC1C2 (stereo not given) | 0.405 | /
Cc1ccc(/C=N/NC(=O)C2CCN(S(=O)(=O)c3ccccc3)CC2)cc1 | -1.08 | /
Cc1c(Cc2c(Cl)cccc2Cl)c(=O)ccn1Cc1cccc(Cl)c1 | -0.31 | /
S=c1nc(-c2csc3c2CCCC3)[nH][nH]1 | / | -0.9
Cc1cc(=O)n2[nH]c(C(=O)N3CCCC3)nc2n1 | / | -0.1
CCc1[o+]c(-c2ccc(OC)cc2)cc2cc(OC)c(OC)cc12 | 2.5 | -0.3

Additional results follow:
SMILES | Ba CapD inh | AID504770
COc1ccc(-c2cn(-c3ccc(Br)cc3)c(=O)[nH]2)cc1 | 0.67 | -0.65
Cc1ccccc1NC(=S)N1CC(C)OC(C)C1 (stereo not given) | -0.095 | /
OCCN(CCO)c1nc(-c2ccccc2)nc2c1oc1ccccc12 | -0.19 | /
COc1ccc(C#N)cc1Br | 0.11 | -1.55
Cc1sc2ncnc(N3CCC(C(=O)NC4(C)CCS(=O)(=O)C4)CC3)c2c1C (stereo not given) | / | -0.3
CCOC(=O)c1c(CN(CC)CC)n(C)c2c1cc(OC(C)=O)c1c2c(-c2ccccc2)nn1-c1ccccc1 | 0.86 | /
COc1cccc(COC(=O)N2CCCC2C(=O)OCc2ccc([N+](=O)[O-])cc2)c1 (stereo not given) | 0.095 | /
CCCS(=O)(=O)c1c(S(=O)(=O)CCC)c2c(C(N)=O)cccn2c1C(=O)c1ccc(Br)cc1 | -0.055 | /
C/C(=N\O)c1ccc(Cl)c(NC(=O)c2c(-c3ccccc3Cl)noc2C)c1 | 0.65 | /
c1ccc(-c2nc(C34CC5CC(CC(C5)C3)C4)co2)cc1 | 0.725 | -0.6
O=C(CCCCCN1C(=O)c2ccccc2C1=O)Nc1nccs1 | / | 1.75
COc1ccc(OCc2nnc(N)s2)cc1 | -0.095 | 1.5
CSC1=NCCN1C(=O)c1cc2ccccc2o1 | / | -0.35
CC(C)c1ccc(C2C3=C(CCCC3=O)NC3=C2C(=O)c2ccccc23)cc1 (stereo not given) | -0.43 | -0.65
COc1ccc(CCNC(=O)CC(c2ccccc2)c2cc(Br)ccc2O)cc1OC (stereo not given) | 1.4 | 1
O=C(Cn1nc(Cc2cccnc2)c2ccccc2c1=O)NCC1COc2ccccc2O1 (stereo not given) | 0.81 | -0.05
Cc1ccc(CSCc2ccc(C(=O)NC3CC3)o2)cc1 | -0.445 | -0.9
COc1cccc(Nc2nc(Cl)nc(Nc3cccc(OC)c3)n2)c1 | -0.12 | /
COC(OC)C12c3ccccc3C(c3ccccc31)C1C(=O)N(c3cccc(C)c3C)C(=O)C12 (stereo not given) | 0.13 | /
CC1(C)C(C(=O)Nc2cc(Cl)ccn2)C1(C)C | / | 0.15
NC(=O)COC(=O)Cc1ccc(Cl)cc1 | / | -0.3
CCOC(=O)C1CCc2sc(N)c(C#N)c21 (stereo not given) | -1.21 | -0.25
CCOC(=O)C1=C(C)N=c2s/c(=C\c3cc(OC)ccc3OC)c(=O)n2C1c1ccc(N(C)C)cc1 (stereo not given) | -0.09 | /
CC1(C)CC(=NOC(=O)c2ccccc2)CC(C)(C)N1 | 0.05 | -1.1
CCOc1ccc2oc(C(=O)Nc3ccc(S(C)(=O)=O)cc3)c(C)c2c1 | / | -0.5

A second format for 15 compounds above.
structure	Ba CapD inh	AID504770
O=C(CCCCCN1C(=O)c2ccccc2C1=O)Nc1nccs1	/	1.75
COc1ccc(OCc2nnc(N)s2)cc1	-0.095	1.5
CSC1=NCCN1C(=O)c1cc2ccccc2o1	/	-0.35
CC(C)c1ccc(C2C3=C(CCCC3=O)NC3=C2C(=O)c2ccccc23)cc1 (stereo not given)	-0.43	-0.65
COc1ccc(CCNC(=O)CC(c2ccccc2)c2cc(Br)ccc2O)cc1OC (stereo not given)	1.4	1
O=C(Cn1nc(Cc2cccnc2)c2ccccc2c1=O)NCC1COc2ccccc2O1 (stereo not given)	0.81	-0.05
Cc1ccc(CSCc2ccc(C(=O)NC3CC3)o2)cc1	-0.445	-0.9
COc1cccc(Nc2nc(Cl)nc(Nc3cccc(OC)c3)n2)c1	-0.12	/
COC(OC)C12c3ccccc3C(c3ccccc31)C1C(=O)N(c3cccc(C)c3C)C(=O)C12 (stereo not given)	0.13	/
CC1(C)C(C(=O)Nc2cc(Cl)ccn2)C1(C)C	/	0.15
NC(=O)COC(=O)Cc1ccc(Cl)cc1	/	-0.3
CCOC(=O)C1CCc2sc(N)c(C#N)c21 (stereo not given)	-1.21	-0.25
CCOC(=O)C1=C(C)N=c2s/c(=C\c3cc(OC)ccc3OC)c(=O)n2C1c1ccc(N(C)C)cc1 (stereo not given)	-0.09	/
CC1(C)CC(=NOC(=O)c2ccccc2)CC(C)(C)N1	0.05	-1.1
CCOc1ccc2oc(C(=O)Nc3ccc(S(C)(=O)=O)cc3)c(C)c2c1	/	-0.5

(listing goes on)
SMILES | Ba CapD inh | AID504770
COc1ccc(CN2CCCC(COC(=O)N3CCN(c4ccc(C(F)(F)F)cc4)CC3)C2)cc1F (stereo not given) | -0.475 | /
Cc1ccc(NC(=S)N(Cc2ccc(N(C)C)cc2)C(C)C)c(Cl)c1 | -0.565 | /
C=CCSc1nc(O)cc(=O)n1C | -0.585 | -1
Cc1ccc2c(c1)N(CC(=O)N1CCCC1)C(=O)C(C)O2 (stereo not given) | / | 0.05
CCOC(=O)c1c(NC(=O)c2ccc(OC)cc2)sc(C(=O)Nc2cccc(Cl)c2C)c1C | 0.125 | /
Cc1cccc(/C=N/N(C)C)c1 | / | 0.3
CCN(CC)c1ccc(C(=O)OCC(=O)Nc2ncccn2)cc1 | / | -0.2
O=C(O)CSCC(=O)N1CCOCC1 | -1 | -0.1
CCCC(CCC)C(=O)NC1CCN(Cc2ccccc2)CC1 | -0.48 | -0.45
CN1/C(=C\C=N\NC(=O)Cc2cn3ccsc3n2)C(C)(C)c2ccccc21 | / | 0.05
CC(C)C(=O)N=c1sc2cccc(F)c2n1C | / | 1.9
CCN1CC(C)C(O)(c2ccccc2)CC1C (stereo not given) | -0.32 | 1.7
O=c1oc2c(c(O)c1Cc1ccccc1)c(=O)[nH]c1ccccc12 | 0.485 | -0.15
Cc1ccc(-n2c(-c3ccco3)nc3nc4ccccc4nc32)cc1 | / | 0.95
CCN1CCCC1CNS(=O)(=O)c1cc(Cl)cc(Cl)c1 (stereo not given) | -0.475 | /
CCSc1nnc2c(n1)OC(c1ccc([N+](=O)[O-])o1)Nc1ccccc1-2 (stereo not given) | -0.52 | /
O=C(OCc1ccco1)c1cccnc1Cl | 0.99 | -0.55
Cc1cc(C(N)=O)c(C)n1CCCn1ccnc1 | / | 1.4
C/C(=N/O)c1c(C)[nH]c2ccccc12 | 0.42 | 0.3
Cc1cccc(N2CCN(S(=O)(=O)c3cc(Br)ccc3Br)CC2C)c1 (stereo not given) | -0.13 | /
COc1ccc(/C=C2/C(=O)NC(=O)N(c3cccc(Br)c3)C2=O)cc1OC | 0.145 | /
CN1C(c2ccccc2)=CC(c2ccccc2)n2ncnc21 (stereo not given) | 0.67 | 0.75
Cc1cccc(/C=N/NC(=O)c2ccccn2)c1O | / | -2.3*
COC(=O)CC1Oc2ccccc2N(Cc2ccc(C)cc2)C1=O (stereo not given) | 0.125 | -1.05
CC1CCCN(c2nc3nonc3nc2N2CCCC(C)C2)C1 (stereo not given) | -0.76 | /

(cont.)
SMILES | Ba CapD inh | AID504770
N#CC(C#N)=C(C#N)/C=C/n1c2ccccc2c2ccccc21 | 12.4 | /
CC(C)CCn1c(CNC(=O)c2ccccc2)nc2ccccc21 | -0.23 | -0.3
CC1CCN(S(=O)(=O)c2ccc(-c3csc(-c4cccnc4)n3)cc2)CC1 | 0.475 | 0.95
CC(C)OC(=O)c1ccc2[nH]c3c(c2c1)CCCC3 | -3 | 0.05
CCOC(=O)/C=C1\SC(=O)CN1CC(=O)Nc1ccccc1 | / | -0.15
COc1cc(N2C(=O)c3ccccc3C2=O)nc(OC)n1 | 0.015 | -0.1
CCCCn1c(CCCNC(=O)C(C)C)nc2ccccc21 | 0.285 | -0.2
COc1cc(C(=O)Nc2ccc3oc(-c4cccc(Br)c4)nc3c2)cc(OC)c1OC | 10.6 | /
O=C(COC(=O)Cn1[nH]c(=O)c2ccccc2c1=O)Nc1ncc(Cl)cc1Cl | / | -1.3
NCCc1ccn[nH]1 | 0.26 | /
Cc1nn(Cc2ccccc2Cl)c(Cl)c1C(=O)OCC(=O)NCc1ccco1 | / | 0.05
CC1(C)OC(=O)N2CCc3c([nH]c4ccccc34)C21C (stereo not given) | -1.7 | /
FC(F)(F)c1ccnc(NCCNC(=S)NCc2ccco2)n1 | 0.63 | -0.55
Cc1ccc(S(C)(=O)=NC(=O)CSc2ccc(Cl)cc2)cc1 (stereo not given) | 0.04 | -0.3
CCN(CC)S(=O)(=O)c1cccc(C(=O)O)c1 | -0.485 | -0.4
O=c1c(Br)c(NCc2ccco2)cnn1-c1ccccc1 | / | 0.1
O=C(NC1CC1)C1=CCN(S(=O)(=O)c2ccc(Br)cc2)CC1 | 0.915 | 0.65
COc1ccc(-c2nc3cc(N=Cc4ccccc4O)ccc3o2)cc1 | / | 0.5
COCC(C)n1c(C)ccc1C (stereo not given) | 0.23 | -0.35
Cc1ccc(Sc2ncnc3sccc23)cc1 | 0.09 | -0.3
CC1Oc2ccccc2OC1C(=O)N1CCOCC1 (stereo not given) | -0.53 | -0.5
O=C(O)c1sccc1S(=O)(=O)Nc1ccccc1N1CCOCC1 | -0.165 | -1
COc1ccc(N2CCN(C(=O)COC(=O)Cc3ccccc3)CC2)cc1 | / | -1
CCCCNS(=O)(=O)c1ccc(/C(C)=N/NC(=O)c2ccc(N)cc2)cc1 | / | -0.7
COc1ccc(C(=O)CSc2nnc(C3CCCCC3)n2N)c(OC)c1 | / | 1.7

(list continues)
SMILES | Ba CapD inh | AID504770
N#CC1=C(SCC(=O)Nc2ccccc2)NC(=O)CC1c1cccs1 (stereo not given) | 0.23 | 0.3
CNC(=O)c1c[nH]n2c(=O)c(Cc3ccccc3F)c(C)nc12 | 19.3 | 2.05
O=C(O)CCSc1ccc(Cl)cc1 | -0.5 | -1
COc1cccc2c1OC1(CCN(C(C)C)CC1)N1N=C(c3cccs3)CC21 (stereo not given) | / | 2.25
S=C(NCC1CC1)Nc1ccc2[nH]ccc2c1 | 0.685 | -0.8
COC(=O)CSc1cccc2c1C(=O)CC2c1ccccc1 (stereo not given) | -0.3 | -0.4
CCN(CC)C(=O)COc1ccc2c(-c3ccccc3)cc(=O)oc2c1C | 1.85 | /
COc1ccc(C(=O)NC(=O)CSc2nc3ccccc3n2CCC#N)cc1 | / | 0.2
CNC(=O)/C(C#N)=C/c1c(Oc2ccccc2)nc2ccccn2c1=O | -0.745 | -0.1
C#C[C@]1(O)CC[C@H]2[C@@H]3CCC4=CC(=O)CC[C@@H]4[C@H]3CC[C@@]21C | 0.095 | /
O=C(NCCc1ccccc1)NC1CCCCC1 | -0.315 | 1.3
O=C(O)CC1(CC(=O)N2CCN(C(=O)CC3(CC(=O)O)CCCCC3)CC2)CCCCC1 | / | 0.25
Cn1c(C(=O)NC2CCCCC2)cc2c(=O)[nH]c3ccccc3c21 | -0.105 | 1.25
CSc1ccc(Sc2ccc(SC)cc2)cc1 | 1.15 | -0.1
O=P(c1ccccc1)(c1ccccc1)c1nc(-c2ccc(Cl)cc2Cl)oc1N1CCOCC1 | 2 | /
Cc1cccc(C)c1Nc1nn2c(=O)c3ccccc3nc2s1 | -0.135 | -0.8
COc1cc2c(cc1OC)C1=C(c3ccccc3Br)C(=O)C(=O)N1C(C)(C)C2 | -0.74 | /
COc1cc(C(=O)Nc2c(C(=O)c3ccccc3)oc3ccccc23)cc(OC)c1OC | 9.57 | 0.3
COc1ccccc1N(CC(O)CN1CCOCC1)S(=O)(=O)c1ccc(C)cc1 (stereo not given) | -0.64 | 0.35
Cc1cccc(NC(=O)COC(=O)CN=C2NS(=O)(=O)c3ccccc32)c1C | / | -0.75
CCC(C)C(=O)N1c2ccc(C)cc2-c2c(ssc2=S)C1(C)C (stereo not given) | 0.715 | /
CCOc1ccc(/C=C2\C(=O)NC(=S)N(c3ccccc3F)C2=O)c2ccccc12 | -0.365 | /
